Rango release inh: inhibitors of RanGTP-induced Rango-importin beta complex dissociation; Potency, µM (highest dose often 46.1 µM), for the others: top-dose activity change, negative = inhibition; O95149+P62826; AID 540253; Biochemical FRET Rango-importin beta, RanGTP-induced dissociation; 0.071% of 340,000 active; active means falling FRET ratio curve, often poorly fitted, with flat reads before Ran was added; inconclusive means other falling curves, or compound fluorescence or quenching; inactive means flat or rising ratio curve;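 also: potency is read from the fitted curve at half-maximal effect; % of control where 0% means no effect; nearly all actives have a fitted effect of over 45% in size; -100% = wells without RanGTP and RCC1; the record marks most hits as doubtful in a second field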
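Rango FRET biosensor (snurportin-1 IBB flanked by N-terminal EYFP and C-terminal CFP10) at 0.1 uM, with 0.25 uM importin beta in PBS, 1mM DTT, 0.02% Tween-20, 0.1% BSA. 0.6 uM Ran, 2mM GTP and 0.2 uM RCC1 were then added for 45 min at room temperature. Inhibition read as loss of FRET rise.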
miR-21 FLuc: raises the signal of a miR-21 reporter; HeLa miR-21 FLuc reporter, luciferase, 48 h; Potency, µM (top dose mostly 38.3 µM), for the others: top-dose reporter change, positive = more light; 340,000 tested, under 10 active; AID 2288; active = well fitted rising curve with a large enough effect; inconclusive = small, poorly fitted or top-dose-only effect; inactive = no such curve, though single readings can be large or run the other way;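 also: % of control where 0% means no effect; miR-21 action dims this reporter so a rising signal means less miR-21 action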
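Using DMEM plus 10% FBS, HeLa miR-21-FLuc cells are incubated with test compounds (final up to about 40uM) for 48 hours; firefly luciferase signal is then imaged following reagent-mediated lysis.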
GLA inh pH 4.5: blocks human alpha-galactosidase A at pH 4.5. P06280. AID 1467. purified enzyme, 4-MU-alpha-Gal fluorescence, pH 4.5. 230,000 tested, under 10 active. activity change, negative = inhibition, % at 105 µM; inconclusive = small, poorly fitted or top-dose-only inhibition, or a rising curve; inactive = flat fitted curve, though single readings scatter; no compound was filed as active;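 also: 0% = full activity with enzyme and -100% = basal without enzyme; dose as in the result columns while the protocol names 77 µM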
Target sequence (P06280 whole entry, looked up): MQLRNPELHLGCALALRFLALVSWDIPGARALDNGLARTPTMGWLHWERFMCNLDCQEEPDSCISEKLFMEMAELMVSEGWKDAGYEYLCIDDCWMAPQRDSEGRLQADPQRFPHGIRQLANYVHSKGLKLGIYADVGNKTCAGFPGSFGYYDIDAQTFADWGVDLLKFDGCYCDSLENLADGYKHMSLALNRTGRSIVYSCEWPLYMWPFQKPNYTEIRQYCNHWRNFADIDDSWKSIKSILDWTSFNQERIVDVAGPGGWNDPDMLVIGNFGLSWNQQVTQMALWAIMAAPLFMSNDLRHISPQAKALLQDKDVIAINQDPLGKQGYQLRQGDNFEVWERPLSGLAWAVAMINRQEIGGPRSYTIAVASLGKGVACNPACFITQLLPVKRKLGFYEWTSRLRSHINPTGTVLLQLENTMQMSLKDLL
Rango-impB inh: inhibitors of Rango-importin beta complex formation; 0.031% of 340,000 active; Potency, µM (doses to about 92.2 µM), for inactives: top-dose inhibition of complex formation; Rango CFP/YFP FRET sensor + importin beta, 45 min; Q14974; active = rising FRET ratio curve, often small or poorly fitted; inconclusive = mostly compound fluorescence or quenching in the first reads; inactive = flat curves in all reads;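 also: potency is read from the fitted curve at half-maximal effect; 0% = DMSO wells and 100% = buffer wells lacking importin beta; nearly all actives have a fitted effect of over 15% in size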
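FRET biosensor (snurportin 1 IBB flanked by EYFP and cerulean), 50 nM, with compound 5 min, then 0.125 microM importin beta in PBS, 1 mM DTT, 0.02% Tween-20, 0.1% BSA. CFP/YFP ratio read after 45 min at room temperature; pre-read flags interference.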
* hit, by the source's call; ? = inconclusive; / = not tested or not shown; & = joins results of further samples; [ ] = dose if it differs, or a comment.

Rango release inh	miR-21 FLuc	Molecule	GLA inh pH 4.5	Rango-impB inh
14%	-31%	Cc1ccc(NC(=O)NCCN2C(=O)C3C4C=CC(C4)C3C2=O)cc1 (centres undefined)	-5	3.0%
15%	-4%	CN(C)c1nc(N)nc(N(c2ccccc2)c2ccccc2)n1	8	11%
/	27%	COC1=C(OC)C(=O)C(CCCCCCCCCCO)=C(C)C1=O	-7	/
-15%	0%	Cn1cc(S(=O)(=O)Nc2ccc(Br)cc2F)c(=O)n(C)c1=O	2	7.1%
-7%	/	Cc1cc(O)c(Sc2ncn[nH]2)cc1NS(=O)(=O)c1ccc(Cl)cc1	/	0.5%
-11%	2%	COC(=O)c1cc2c(C)[nH]c(C)c2cc(C(=O)OC)c1=O	1	0.2%
6%	/	Nc1c(N(Cc2ccco2)C(=O)COc2ccccc2)c(=O)[nH]c(=O)n1Cc1ccccc1	/	4.8%
17%	-18%	CCOc1ccccc1N1CCN(S(=O)(=O)c2cc(C)ccc2OC)CC1	1	-1.7%
1%	-32%	Cn1cc(Br)c(C(=O)N/N=C/c2cccc(OC3CSC3)c2)n1	3	-2.1%
-7%	5%	CCOc1cc(NC(=S)Nc2ccccc2)c(OCC)cc1NC(=O)c1ccccc1	-11	2.9%
-6%	-22%	CSC(=N/N=C(\N)c1cnccn1)SC	-14	?
7%	-8%	CC(C)(C)OC(=O)N1CCC(C(N)=O)CC1	5	1.9%
/	-5%	COC(=O)C(C#N)c1nc2ccccc2nc1N1CCN(Cc2ccc3c(c2)OCO3)CC1 (centres undefined)	0	/
11%	/	COc1ccc(NS(=O)(=O)c2cc(C(=O)N(C)CCc3ccccn3)ccc2Cl)cc1	/	1.6%
18%	4%	O=C(NN1CCOCC1)c1cccc2ccccc12	3	3.8%
0%	-41%	CCCc1c(C(=O)NNc2ccccc2OC)cnn1-c1ccccc1	0	-2.1%
4%	-6%	Cc1cc(SCCC(=O)O)nc2c(C)cccc12	4	-2.4%
0%	-22%	c1ccc(-c2nccc(-c3ccco3)n2)nc1	5	0.4%
-3%	-3%	CCN(CCNC(=O)C1CCN(S(=O)(=O)c2c(C)noc2C)CC1)c1ccccc1	10	-3.8%
11%	-1%	COc1cc(NC(=O)c2ccco2)ccc1NC(=O)c1ccccc1Cl	0	0.5%
-16%	-28%	O=C(Nc1cccc(NC(=O)c2ccco2)c1)c1ccc2c(c1)OCCO2	10	-0.2%
0%	-4%	CCOC(=O)N1CCC(NC(=O)c2cc3sccc3n2CC)CC1	0	-1.3%
-1%	1%	Cc1csc(NC(=O)CSc2nnc(Cc3cccn3C)n2-c2ccc(F)cc2)n1	4	-0.6%
-8%	4%	COc1ccc(CN2C(=O)c3cccnc3C2=O)cc1S(=O)(=O)N(C)c1cccc(C)c1	/	1.4%
-16%	-21%	COc1cc(/C=C2/C(=N)N3N=C(CC(=O)N4CCOCC4)SC3=NC2=O)ccc1OCc1ccccc1F	/	?
-10%	-8%	CCCOc1ccccc1N1C(=O)CC(N(O)c2ccccc2)C1=O (centres undefined)	2	3.3%
14%	7%	NC(=O)c1oc2ccccc2c1NC(=O)c1ccccc1	-3	-4.2%
?	-5%	Cc1ccc2nc(N3CCC(C(=O)O)CC3)nc(-c3ccccc3)c2c1	0	?
-26%	0%	COC(=O)c1sc(NC(=O)c2c(F)cccc2F)c(C#N)c1C	1	?
5%	0%	O=C(CC1S/C(=N/N=C/C=C/c2ccccc2)NC1=O)Nc1ccc(C(=O)O)cc1 (centres undefined)	3	2.7%
9%	-4%	CCOc1ccc(CN(CCO)CCO)cc1C(=O)OC	4	0.4%
-6%	-1%	O=S1(=O)C[C@H]2NC(=S)N(c3ccccc3)[C@H]2C1	5	3.7%
8%	-8%	O=C(NCCC1=CCCCC1)C1CCCN(S(=O)(=O)c2cccnc2)C1 (centres undefined)	7	-1.6%
-17%	?	CC1CCCC(NC(=S)Nc2ccc(SC(F)F)cc2)C1C (centres undefined)	-24	-4.1%
16%	25%	Cc1cc(C)cc(NC(=O)c2ccc([N+](=O)[O-])o2)c1	5	5.3%
-6%	-4%	CCCn1c(=O)c(C(=O)NNS(=O)(=O)c2ccc(Cl)cc2)c(O)c2ccccc21	-4	-4.0%
-17%	-5%	COc1ccc(S(=O)(=O)NCCc2c[nH]c3ccccc23)cc1OC	/	0.4%
-13%	/	Cc1cccc(C(=O)OCC(=O)N2CCCC2=O)c1[N+](=O)[O-]	/	-0.2%
-30%	5%	CC(C)(C)c1ccc(C(=O)O/N=C(\N)c2ccccc2)cc1	/	-3.3%
18%	?	COc1ccc(N=C2S/C(=C\c3ccc(Cl)c([N+](=O)[O-])c3)C(=O)N2CCN(C)C)cc1	/	1.2%
24%	-8%	COc1ccc(OC)c(NC(=O)CSc2nnc(C3CCCCC3)o2)c1	-5	3.4%
-4%	-8%	O=C(CSc1oc(-c2ccco2)nc1S(=O)(=O)c1ccccc1)NCC1CCCO1 (centres undefined)	-7	-1.6%
7%	22%	Cc1cccc(NC(=O)c2ccc([N+](=O)[O-])s2)c1C	-4	-3.1%
-14%	/	N#Cc1nc(Nc2cccc(Cl)c2)c2ncn(C3CCCC3)c2n1	/	?
-10%	2%	Cc1ccc(S(=O)(=O)NCC(=O)Nc2ccc(C(F)(F)F)cc2)cc1	0	-4.9%
-6%	8%	O=c1ccc(N=Nc2ccccc2)ccc1O	-9	2.0%
15%	-10%	CC(=O)c1ccc(N2CCN(C(=O)CCN3C(=S)NC(C)(C)CC3C)CC2)cc1 (centres undefined)	7	?
31%	-10%	Cc1ccc(/C=N/N2CCN(Cc3ccccc3)CC2)o1	-1	2.2%
-18%	-1%	O=C(CN1CCCCC1)N/N=C/c1ccc(Cl)cc1Cl	/	4.6%
0%	-2%	O=C(NCc1ccc2c(c1)OCO2)C1CCCN1C(=O)Nc1ccc(F)cc1 (centres undefined)	-8	0.8%

(cont.)
Rango release inh	miR-21 FLuc	Molecule	GLA inh pH 4.5	Rango-impB inh
-1%	-48%	O=C(/C=C/c1ccccc1)Nc1ccc(CN2CCOCC2)cc1	6	-1.1%
?	1%	Cc1ccc(C)n1-c1nnc(N2CCC(C(=O)NCCCN3CCN(C)CC3)CC2)s1	/	0.9%
9%	/	O=C(CCNC(=O)c1ccc(Br)cc1)NCc1cccnc1	/	-0.3%
2%	/	CCCCOCCO	/	0.4%
-3%	-2%	COc1cccc(/C=C2\SC(=S)N(N3C(=O)CCCC3=O)C2=O)c1	-14	0.0%
-6%	-18%	Cc1c(C(=O)C(=O)NCc2cccs2)c2ccccc2n1C	-2	-0.8%
-3%	/	Cn1c(N)c(C(=O)CSc2nnc(N)s2)c(=O)n(C)c1=O	/	6.1%
-8%	-13%	COC(=O)c1c(NC(=O)c2ccoc2C)sc2c1CCC2	2	?
7%	9%	Cc1cc(C)c(S(=O)(=O)NCC2CCC(C(=O)NCc3ccc4c(c3)OCO4)CC2)c(C)c1 (centres undefined)	-4	-2.1%
-12%	/	CC(C)NC(=S)NNc1ncnc2sc3c(c12)CC(C)(C)OC3	/	1.6%
0%	0%	CC1CCc2nc(NC(=O)c3ccc(N4C(=O)CCC4=O)cc3)sc2C1 (centres undefined)	/	-1.9%
23%	-6%	CCCCC1S/C(=N/N=C/c2ccco2)NC1=O (centres undefined)	-2	-1.2%
-11%	1%	Cc1ccc(-c2nn(CC(=O)NC(C)c3ccccc3)c(=O)c3ccccc23)cc1 (centres undefined)	-4	2.0%
1%	2%	CC(=O)c1ccc(N2CCN(C(=O)Nc3ccc(Cl)cc3)CC2)cc1	-3	1.1%
7%	-3%	COCCNC(=O)C1CC(c2ccc([N+](=O)[O-])cc2)=NO1 (centres undefined)	0	-0.8%
-5%	/	CN(CCc1ccccc1)C(=O)c1cccc(NC(=O)Cc2cccc(NC(=O)C3CCCN(C(=O)C4CCC4)C3)c2)c1 (centres undefined)	/	1.5%
-4%	-26%	O=C(Nc1ccccc1)Nc1ccc(C(=O)N2CCOCC2)cc1	-1	3.7%
1%	3%	CC(=O)c1c(C)n(-c2ccc(C)cc2)c2ccc(O)cc12	/	-1.2%
4%	1%	CCN(CC)C(=O)C1CCCN(Cc2ccc(N(C)C)cc2)C1 (centres undefined)	-9	-1.7%
-5%	8%	CCOc1ccc(NC(=S)N2CCN(c3ccc(N4CCOCC4)nn3)CC2)cc1	0	-3.5%
1%	19%	CC(O)CNCCCOc1ccc(Cl)cc1C(C)(C)C (centres undefined)	-4	5.1%
-23%	-26%	C=C1c2cc(C)ccc2NC(=O)N1c1ccc(C)cc1	12	-4.4%
6%	7%	O=C(Nc1ccc(Cl)cc1)c1ccc(-n2cccn2)c([N+](=O)[O-])c1	-7	3.5%
-9%	4%	COCCCNC(=O)CCn1c(=O)c2ccccc2n(CC(=O)NCCc2ccc(OC)c(OC)c2)c1=O	3[21.1 µM]	3.0%
14%	/	COc1ccc(CC(=O)Oc2ccccc2C)cc1S(=O)(=O)N1CCOCC1	/	0.1%

Compounds listed so far that have a COOH group, in the order listed:
Rango release inh	miR-21 FLuc	Molecule	GLA inh pH 4.5	Rango-impB inh
4%	-6%	Cc1cc(SCCC(=O)O)nc2c(C)cccc12	4	-2.4%
?	-5%	Cc1ccc2nc(N3CCC(C(=O)O)CC3)nc(-c3ccccc3)c2c1	0	?
5%	0%	O=C(CC1S/C(=N/N=C/C=C/c2ccccc2)NC1=O)Nc1ccc(C(=O)O)cc1 (centres undefined)	3	2.7%

Continuation:
Rango release inh	miR-21 FLuc	Molecule	GLA inh pH 4.5	Rango-impB inh
2%	-33%	COc1ccc(-c2nnc3ccc(SC)nn23)cc1	-7	0.4%
6%	-4%	COc1ccc(-c2n[nH]c(=S)n2C2CCCCC2)cc1	-14	1.4%
-2%	-2%	CCN(C(=O)CSc1nnc(C)n1-c1ccccc1)C1CCS(=O)(=O)C1 (centres undefined)	6	0.0%
2%	-8%	CCc1noc(C)c1C(=O)OCC(=O)c1ccccc1OC	/	-1.2%
28%	-4%	CC1(C)Cc2c(sc3c2c(=O)n(-c2cccc(Cl)c2)c(=O)n3CC(N)=O)CO1	-3	1.6%
1%	-1%&2%	COc1cccc(-c2nn(C)c3sc(C(=O)NCc4ccc(C)cc4)cc23)c1	-1	0.2%
-1%	-6%	COC(=O)N/N=C(\C)c1ccc2ccccc2c1OC(F)F	2	5.6%
7%	3%	NC1=NC2(CCCCC2)N(c2cccc(Cl)c2)C(N)=N1	5	4.3%
-23%	22%	CCc1c(C)nc2ccc(Br)cc2c1SCCC#N	-1	1.8%
34%	-9%	CCC(C)[C@@H](C(=O)Nc1ccc(OC)c(OC)c1)N1Cc2ccccc2C1=O (some centres undefined)	-8	-0.8%
-3%	2%	COc1cccc(/C=N/NC(=O)c2nnn(-c3nonc3N)c2C(C)C)c1	/	-0.1%
1%	0%	Cc1cc(C)cc(OC(=O)CCN2C(=O)C3C4C=CC(C5CC45)C3C2=O)c1 (centres undefined)	6	-2.1%
-17%	1%	N#CCC(=O)Nc1ncc(Cc2ccccc2Cl)s1	7	?
?	-35%	CCS(=O)(=O)Nc1cc(-c2nc3cccnc3s2)ccc1C	-2	?

Profiles from above.
CCS(=O)(=O)Nc1cc(-c2nc3cccnc3s2)ccc1C is listed as Rango release inh = ?; miR-21 FLuc = -35%; GLA inh pH 4.5 = -2; Rango-impB inh = ?
CCc1noc(C)c1C(=O)OCC(=O)c1ccccc1OC is listed as Rango release inh = 2%; miR-21 FLuc = -8%; GLA inh pH 4.5 = /; Rango-impB inh = -1.2%

A portion of the library, so the mix of outcomes need not match the whole.
